Cruzain Triton: blocks cruzain activity in presence of Triton detergent | P25779 | purified cruzain, Z-FR-AMC fluorescence, 0.01% Triton | Potency, µM, without a hit: max response, negative = inhibition, usual class: inhibitors | hit rate 0.43% among 200,000 | AID 1478; active = well fitted curve in the direction sought with a large enough effect; inconclusive = small, poorly fitted or top-dose-only effect, or another doubt; inactive = no such curve, though single readings can be large; an effect the other way counts as inactive or inconclusive;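 note: plate controls were neutral wells for no effect and buffer without enzyme for full effect; nearly all actives have a fitted effect of over 40% in size; top concentration of the series not given in the record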
Target sequence (P25779 123-467 limits assumed): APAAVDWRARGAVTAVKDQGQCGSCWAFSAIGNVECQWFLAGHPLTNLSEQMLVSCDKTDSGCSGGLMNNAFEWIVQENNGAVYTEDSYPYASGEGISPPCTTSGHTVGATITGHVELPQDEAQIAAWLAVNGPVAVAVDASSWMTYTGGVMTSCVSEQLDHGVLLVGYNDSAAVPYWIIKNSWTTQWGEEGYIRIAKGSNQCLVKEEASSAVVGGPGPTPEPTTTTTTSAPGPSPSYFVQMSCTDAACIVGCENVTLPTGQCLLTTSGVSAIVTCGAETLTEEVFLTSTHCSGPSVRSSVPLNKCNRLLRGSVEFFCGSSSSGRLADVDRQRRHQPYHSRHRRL
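Enzyme 1.5 nM, Z-FR-AMC 2 uM, NaOAc 100 mM pH 5.5, DTT 5 mM, Triton X-100 0.01%; 15 min RT compound preincubation; kinetic ex360/em450, 60 s delta.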
RE007 growth inh: less growth of the S. pombe RE007 Vpr strain; S. pombe RE007 Vpr strain, BacTiter-Glo ATP luminescence, 24 h; control for the full effect not named in the record; Potency, µM (highest dose often 92.2 µM), without a hit: at the top dose activity change, negative = less growth; hit rate 0.21% among 360,000; AID 651644; active = well fitted falling curve with a large enough effect; inconclusive = small, poorly fitted or top-dose-only effect; inactive = no such curve, though single readings can be large or run the other way;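 note: % is set by controls: 0 for no effect and ±100 for the full control effect; nearly all actives have a fitted effect of over 50% in size; the assay follows cell death caused by Vpr and the record does not say whether a fall means rescue or toxicity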
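Fission yeast RE007 carrying one integrated HIV-1 vpr copy, seeded at OD 0.01 in PMG+AL medium with 23 nL pinned compound. Grown 24 h at 30 degrees; viability read by BacTiter-Glo luminescence after 5 min.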
Lassa entry inh: inhibitors of Lassa virus binding or cell entry; Lassa virus pseudotype entry inhibition, cell reporter; control for the full effect not named in the record; Potency, µM (series often up to 37.9 µM), for the others: at the highest dose activity change, negative = inhibition, hits mostly inhibitors; hit rate 1.2% among 300,000; AID 540256; active means well fitted inhibition curve with a large enough effect; inconclusive means small, poorly fitted or top-dose-only effect, or effect the other way; inactive means flat fitted curve, though single readings scatter; tested in HEK293 cells; note: % is set by controls: 0 for no effect and ±100 for the full control effect; nearly all actives have a fitted effect of over 50% in size; luciferase read-out
SARS PLpro yeast: SARS-CoV PLP inhibition in yeast | Potency, µM (top dose mostly 32.9 µM), for inactives: at the highest dose activity, positive = growth rescue | S. cerevisiae expressing SARS-CoV PLpro, growth rescue; control for the full effect not named in the record | hit rate 0.19% among 330,000; note: 0% is about no effect; nearly all actives have a fitted effect of over 55% in size; growth read by luminescence after 48 h
StopGo reporter: lowers the luciferase signal of an FMDV 2A StopGo reporter. human cells with a luciferase reporter of 2A StopGo recoding; control for the full effect not named in the record. Potency, µM (series often up to 57.9 µM), without a hit: top-dose signal change, negative = less light. hit rate 1.2% among 410,000; active = well fitted falling curve with a large enough effect; inconclusive = small, poorly fitted or top-dose-only effect; inactive = no such curve, though single readings can be large or run the other way; tested in HEK293T cells; note: % is set by controls: 0 for no effect and ±100 for the full control effect; nearly all actives have a fitted effect of over 45% in size; luciferase light after 4 h
Cruzain inh noDet: inhibitors of Trypanosoma cruzi cruzain without detergent; P25779; purified cruzain, Z-FR-AMC fluorescence, no detergent; Potency, µM, inactives show max response, negative = inhibition, most hits filed as inhibitors; hit rate 2.3% among 200,000; active = well fitted curve in the direction sought with a large enough effect; inconclusive = small, poorly fitted or top-dose-only effect, or another doubt; inactive = no such curve, though single readings can be large; an effect the other way counts as inactive or inconclusive;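 note: plate controls were enzyme without inhibitor for no effect and buffer without enzyme for full effect; nearly all actives have a fitted effect of over 40% in size; top concentration of the series not given in the record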
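Detergent-free condition (0.00005% Triton X-100) in acetate buffer pH 5.5 with DTT. 1.5 nM enzyme and compound were pre-mixed 15 min, then 2 uM Z-FR-AMC substrate added; reaction progress from fluorescence change between first and third reads (60 s).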
MARV entry inh: inhibitors of Marburg virus binding or cell entry | Marburg virus pseudotyped entry inhibition, cell reporter; control for the full effect not named in the record; about a third of the inactives were read at about 46 µM | Potency, µM (doses to about 37.8 µM), without a hit: top-dose activity change, negative = inhibition, actives largely listed as inhibitors | hit rate 1.8% among 300,000 | AID 540276; active = well fitted inhibition curve with a large enough effect; inconclusive = small, poorly fitted or top-dose-only effect, or effect the other way; inactive = flat fitted curve, though single readings scatter; tested in HEK293 cells; about a fifth of its hits are not listed in these tables; note: % is set by controls: 0 for no effect and ±100 for the full control effect; luciferase read-out
NS1 function inh: influenza NS1 inhibition; Potency, µM (doses to about 46.1 µM), for inactives: at the highest dose activity, positive = more growth; hit rate 0.4% among 270,000; S. cerevisiae slowed by influenza A NS1, growth recovery by OD600; AID 2326; note: actives are rising curves; nearly all actives have a fitted effect of over 50% in size
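Compounds were scored for reversing the slow growth caused by influenza A NS1 in S. cerevisiae, measured by optical density at 600 nm. Assay medium contained 2% galactose at pH 6.0; NS1-free yeast of the same strain were the positive control.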
Starred values were filed as active, the others as inactive; ? = inconclusive; · = no result given; & = joins results of further samples; [ ] = another dose, or the depositor's remark. Unless noted, calls come from the whole dose curve; as a rule, active means well fitted rising curve with a large enough effect; inconclusive means small, poorly fitted or top-dose-only effect; inactive means no such curve, though single readings can be large or run the other way. Potency is the fitted concentration of half-maximal effect.

canonical_smiles	Cruzain Triton	RE007 growth inh	Lassa entry inh	SARS PLpro yeast	StopGo reporter	Cruzain inh noDet	MARV entry inh	NS1 function inh
O=C(NCc1ccco1)C1CCCN1C(=O)Nc1cccc(Cl)c1 (stereo not drawn)	·	-11%	·	0%	-5%	·	·	-1%
CC(=O)c1ccc(NC(=O)c2cc(C3CC3)nc3c2c(C)nn3-c2ccc(C)cc2)cc1	-1.2%	·	6%[46.1 µM]	·	-15%	-6%	·	·
CCC(CC)NC(=O)c1n[nH]c(=O)c2ccccc12	7.0%	8%	-6%	7%	-4%	13%	0%	2%
Cc1ccc(C(C)C)c(OCCn2cc(C(=O)c3ccco3)c3ccccc32)c1	-5.6%	·	28%[46.1 µM]	·	-23%	4%	?	·
Cc1cc(Cl)ccc1OCCCC(=O)NC1CCN(C)CC1	-2.0%	-1%	2%	3%	67%[activator]	5%	?	-11%
C=Cc1ccc(CSc2nc(-c3ccc(Cl)cc3)nc3c2Cc2c(CO)cnc(C)c2O3)cc1	-1.8%	·	6%[46.1 µM]	·	?	?	·	·
CCCCCC1C(=O)N2C=C(c3ccccc3)c3ccccc3N2C1=O (stereo not drawn)	·	-14%	9%	·	-19%	·	4%	·
CC(C)C1Nc2c(C(=O)O)cccc2C(Nc2ccccc2C(=O)O)C1(C)C (stereo not drawn)	·	-2%	0%	4%	-8%	·	-3%[46.1 µM]	·
CCCCN(C(=O)c1cccc(-n2cccc2)c1)c1c(N)n(CCC)c(=O)[nH]c1=O	·	-12%	16%	-2%	-10%	·	12%	·
CC(=O)NCc1ccc(S(=O)(=O)NC2CCN(Cc3ccccc3)CC2)cc1	·	-18%	?	-1%	-15%	·	-7%[46.1 µM]	7%
O=C(O)Cc1coc2ccc3ccccc3c12	·	-19%	0%[46.1 µM]	-3%	-6%	·	7%[46.1 µM]	·
Cc1ccc(-c2nnc(Nc3ccccc3)c3ccccc23)cc1S(=O)(=O)N1CCOCC1	-0.6%	·	-14%[46.1 µM]	·	?	-4%	·	·
Cn1c(=O)c2c(c3ccccc31)OC(=O)CC2c1cccnc1 (stereo not drawn)	·	4%	·	1%	-4%	·	·	-3%
CCCCN(CCCC)C(=O)c1ccccc1NC(=O)CN1C(=O)c2ccccc2C1=O	-2.9%	3%	14%	13%	-12%	0%	-1%	-2%
CC(C)C(c1nnnn1Cc1ccco1)N1CCN(C2CCCC2)CC1 (stereo not drawn)	2.4%	14%	2%	1%	-9%	4%	1%	?
O=C(O)c1cccc(Nc2nc(-c3ccc([N+](=O)[O-])cc3)nc3ccccc23)c1	·	-2%	·	0%	-8%	·	·	0%
O=S(=O)(c1cnc(Cl)c(Cl)c1)N1CCCc2ccccc21	2.2%	-1%	?	-32%	?	6%	?	-30%
CN=c1scc(C)n1/N=C/c1ccc(O)cc1	-5.7%	-8%	?	-3%	29%	-22%	?	-31%
COc1ccc(Br)cc1S(=O)(=O)NCc1ccccc1	-4.3%	-5%	13%	-1%	100%[activator]	-3%	-26%	-8%
CCOC(=O)C1(CCCc2ccccc2)CCN(C2CCSCC2)CC1	·	-12%	·	0%	?	·	·	-3%
CC1CCCN(C(=O)CCS(=O)(=O)c2ccc3c(c2)n(C)c(=O)c(=O)n3C)C1 (stereo not drawn)	·	3%	·	-6%	-6%	·	·	14%
COc1cccc(-n2c(=O)c3c(C)c(C(=O)N(C)C)sc3n(CC(=O)Nc3ccc(C)cc3Cl)c2=O)c1	0.2%	·	13%[46.1 µM]	·	-14%	-7%	·	·
CCn1c(C)nc2cc(C(=O)N/N=C/c3ccccc3)ccc21	·	-1%	9%	-4%	27%	·	10%[46.1 µM]	2%
CCCCCCOC(=O)C1=C(C)NC(=O)NC1c1ccc2c(c1)OCO2 (stereo not drawn)	·	-12%	·	5%	-26%	·	·	?

As entered above.
CCCCN(CCCC)C(=O)c1ccccc1NC(=O)CN1C(=O)c2ccccc2C1=O in NS1 function inh: -2%
Cn1c(=O)c2c(c3ccccc31)OC(=O)CC2c1cccnc1 (stereo not drawn) in SARS PLpro yeast: 1%

Full records, quoted from the list:
CCn1c(C)nc2cc(C(=O)N/N=C/c3ccccc3)ccc21 reads Cruzain Triton: ·; RE007 growth inh: -1%; Lassa entry inh: 9%; SARS PLpro yeast: -4%; StopGo reporter: 27%; Cruzain inh noDet: ·; MARV entry inh: 10%[46.1 µM]; NS1 function inh: 2%
CCOC(=O)C1(CCCc2ccccc2)CCN(C2CCSCC2)CC1 reads Cruzain Triton: ·; RE007 growth inh: -12%; Lassa entry inh: ·; SARS PLpro yeast: 0%; StopGo reporter: ?; Cruzain inh noDet: ·; MARV entry inh: ·; NS1 function inh: -3%

Other results follow.
canonical_smiles	Cruzain Triton	RE007 growth inh	Lassa entry inh	SARS PLpro yeast	StopGo reporter	Cruzain inh noDet	MARV entry inh	NS1 function inh
O=C(CCSc1ccc(Cl)cc1)NC1CCCC1	·	2%	·	-2%	6%	·	·	2%
COc1cccc(-c2ccc(C#N)c(SCC(=O)NCCc3ccc(Cl)cc3)n2)c1	-1.2%	3%	?	-11%	-19%	?	?	20%
CC(=O)N1CCN(C(=O)COC(=O)/C=C/c2ccccc2[N+](=O)[O-])CC1	·	-3%	12%	2%	-27%	·	22%	·
COc1ccccc1-c1nc2c(c(SCc3ccc(F)cc3Cl)n1)Cc1c(CO)cnc(C)c1O2	-0.7%	·	14%[46.1 µM]	·	-6%	-3%	·	·
COc1ccc(CNC(=O)CNC(=O)c2ccc(C(C)(C)C)cc2)cc1OC	·	0%	·	2%	-7%	·	·	3%
O/N=C\c1cccn1-c1nccs1	·	2%	11%	-1%	-6%	·	12%	·
COc1cc(/C=C2/C(=O)NN(c3ccc(Cl)cc3)C2=O)ccc1OC(=O)c1ccco1	-15%	·	-7%	12%	?	29%	?	18%
C=CCSc1nnc(NC(=O)C2CSC3(C)CCC(=O)N23)s1 (stereo not drawn)	·	-19%	17%	-7%	1%	·	-8%	·
CCC(=O)N(CCc1ccc(S(N)(=O)=O)cc1)C1CC(=O)N(c2ccc(OC)cc2)C1=O (stereo not drawn)	·	1%	16%	1%	12%	·	14%[46.1 µM]	2%
CCOc1ccc2ccccc2c1/C=N/NC(=O)c1c(C)cc(C)[nH]c1=O	·	2%	6%	·	6%	·	22%[46.1 µM]	·
CCN(CC)C(C)CN1c2ccccc2Sc2ccccc21 (stereo not drawn)	-6.8%	·	-2%	·	28µM*	-2%	?	·
CCOC(=O)c1ccccc1NC(=O)CSc1cccc[n+]1[O-]	5.7%	-2%	2%	2%	-4%	1%	1%	9%
CCN1C(=O)/C(=C2/Sc3ccccc3N2CCCS(=O)(=O)O)SC1=S	-19%	11%&2%	-1%&-2%	1%&4%	-25%&6%	?	?	5%&0%
Cc1csc2nc3ccccc3c(=O)n12	-6.4%	1%	2%	-10%	20%	5%	9%	-7%
Cc1sc2ncn(CC(=O)NCCN(C)C)c(=O)c2c1S(=O)(=O)N1CCC(C)CC1	·	-4%	21%	0%	22%	·	-4%[46.1 µM]	-7%
CCN1CCN(C(=O)/C=C/c2ccc(C(C)C)cc2)CC1	·	-3%	-1%[46.1 µM]	·	32%	·	?	·
CCOc1ccccc1N(CC)C(=O)c1cc2c(=O)[nH]c3ccc(C)cc3c2s1	-1.4%	·	·	·	-12%	0%	-7%[46.1 µM]	·
O=C(Nc1ccc(Br)cc1)c1cc(-c2ccncc2)nc2ccccc12	·	0%	-21%[46.1 µM]	-10%	-6%	·	?	·
CC(=O)c1cccc(NS(=O)(=O)N2CCCCC2)c1	-3.7%	2%	-2%	-11%	8%	-4%	10%[46.1 µM]	0%
O=C(N/N=C/c1ccc2c(c1)OCO2)c1cc(-c2ccccc2Cl)nc2ccccc12	-9.0%	6%	2%	10%	-11%	?	-11%	?
COc1ccc(-c2nc3ccccn3c2CN2CCN(c3ccccc3F)CC2)cc1	·	?	-13%	-3%	-27%	·	-18%[46.1 µM]	2%
COc1ccc(C(=O)Nc2nc3cc4c(cc3s2)OCO4)c(OC)c1	·	9%	·	0%	12%	·	·	?
O=C(N/N=C/c1sc2ccccc2c1O)c1ccccc1	-1.2%	45µM*	?	4µM*	-3%	3%	?	-43%
CC(=O)c1ccccc1N(C(=O)Cn1nnc2ccccc21)C(C(=O)NCC1CCCO1)c1ccc(N2CCOCC2)cc1 (stereo not drawn)	·	-8%	·	-1%	57%[activator]	·	·	-3%
O=C(Oc1ccccc1C(=O)N1CCOCC1)c1ccccc1	3.2%	14%	6%	2%	28%	-4%	-3%	-23%
Cc1cc(C)n2nc(C(=O)OCC(=O)Nc3ccc(C)c(S(=O)(=O)N(C)C)c3)nc2n1	·	0%	-2%	3%	-14%	·	4%	·
CN1CCN(c2ccc3ccccc3n2)CC1	-3.7%&-3.3%	·	·	·	31%&25%[activator]	-1%&-5%	-17%&-17%&-17%&-17%&-17%	-11%
C=CCn1cnc2scc(-c3ccc(CC)cc3)c2c1=O	-5.2%	22%	-22%	·	-11%	0%	13%[46.1 µM]	-18%
CCOC(=O)CCN(C(=S)Nc1ccccc1)C1CCCCC1	·	-2%	6%[46.1 µM]	·	-15%	·	?	·
CC(C)(C)c1ccc(C(=O)Nc2ccc(S(N)(=O)=O)cc2)cc1	·	4%	?	3%	-22%	·	2%[46.1 µM]	-4%
Cc1ncc([N+](=O)[O-])n1CCOC(=O)c1ccc(Br)cc1	·	16%	-23%	-2%	0%	·	21%[46.1 µM]	-6%
O=C(Nc1nncs1)Oc1ccccc1	6.3%	3%	13%	6%	23%	8%	14%	5%
